From PubChem
Mtb MenB inh: inhibitors of Mycobacterium tuberculosis MenB enzyme | P9WNP5 | MenB enzyme assay, absorbance read-out; some hits fall short of the stated cut | inhibition, %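 (about 12 µg/mL by stock and volumes)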 | actives 0.43% (n = 100,000);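 active = mean of two replicates above 30%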;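 also: 0% = no compound and 100% = wells with inactive enzyme; the first replicate is given; strong numbers were not always called active; inactives centre near -10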
Target sequence (P9WNP5 whole entry, looked up): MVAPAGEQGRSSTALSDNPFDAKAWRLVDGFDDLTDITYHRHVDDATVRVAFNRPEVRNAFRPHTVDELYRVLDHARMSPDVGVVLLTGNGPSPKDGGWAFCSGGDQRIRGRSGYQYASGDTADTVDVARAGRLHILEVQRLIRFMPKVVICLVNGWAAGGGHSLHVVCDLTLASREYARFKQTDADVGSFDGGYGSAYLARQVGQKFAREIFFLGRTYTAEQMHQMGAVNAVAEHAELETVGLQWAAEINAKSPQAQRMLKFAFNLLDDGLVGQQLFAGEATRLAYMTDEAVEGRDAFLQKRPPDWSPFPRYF
PV pol inh: poliovirus RNA polymerase inhibition; P03300; poliovirus polymerase elongation, fluorescence polarization; hits give low values; % elongation, % (compound at 16.7 µg/mL); actives 0.66% (n = 150,000); AID 588519; in the data active = % elongation below about 90%; also: some results filed as inactive read as strong as hits
Mtb MbtI inh: blocks the Mycobacterium tuberculosis siderophore enzyme MbtI; AID 493033; actives 0.89% (n = 100,000); inhibition, %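 (about 17 µg/mL by stock and volumes)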; purified MbtI enzyme, fluorescence intensity read-out;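 active = above 50% in both replicates, above 80% if mildly self-fluorescent; inactive = the rest, strongly fluorescent compounds included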;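 also: 0% = mean of negative and 100% = mean of positive controls; one replicate is shown; some compounds called inactive have numbers as strong as hits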
Target sequence (P9WFX0 whole entry, looked up): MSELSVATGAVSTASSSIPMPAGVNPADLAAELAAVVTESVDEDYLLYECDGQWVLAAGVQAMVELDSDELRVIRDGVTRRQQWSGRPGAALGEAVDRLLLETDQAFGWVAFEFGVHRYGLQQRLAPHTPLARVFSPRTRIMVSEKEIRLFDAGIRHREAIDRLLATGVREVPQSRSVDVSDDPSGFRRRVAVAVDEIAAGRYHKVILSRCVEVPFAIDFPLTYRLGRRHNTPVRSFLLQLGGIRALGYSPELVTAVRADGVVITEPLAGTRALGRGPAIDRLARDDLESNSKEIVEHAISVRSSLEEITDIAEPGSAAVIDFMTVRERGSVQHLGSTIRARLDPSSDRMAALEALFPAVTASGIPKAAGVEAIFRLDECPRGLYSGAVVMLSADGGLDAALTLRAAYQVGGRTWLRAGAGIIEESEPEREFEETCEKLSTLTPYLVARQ
PV pol inh intensity: second read-out of PV pol inh, no call of its own (marks repeat the call); % elongation; measured here: total intensity read-out; formula for this scale not given here;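 total fluorescence in place of polarization; lower means less elongation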
An asterisk follows results filed as active; i = inactive; . = no result given; & = joins results of further samples. No enrichment for hits; about 1.7% have a hit in one of these screens.

SMILES	Mtb MenB inh	PV pol inh	PV pol inh intensity	Mtb MbtI inh
O=C(NCCCCCCNC(=O)ON=C1CCCCC1)ON=C1CCCCC1	0	100&100	103&101	-6
C#CCn1c(=NC(=O)C2=COCCO2)sc2ccccc21	1	97	100	23
O=C(OCc1ccc(F)cc1)c1ccc(-n2cnnn2)cc1	-20	103	107	-26
N#CCC(=O)Nc1nccs1	-29	103	103	-3
O=C(Nc1ccccc1)Oc1cccc(Cl)c1	-16	103	93	-1
N#CC1(C(=O)O)CN(CCc2ccc(Cl)cc2)CN(CCc2ccc(Cl)cc2)C1	-27	103	104	-12
COC(=O)c1cc(N)ccc1N1CCOCC1	-72	106	102	-3
CC[n+]1c(/C=C/Nc2ccccc2)sc2ccccc21	i	94	90	.
O=C1C2CCN(CC2)C1Cc1ccc2ccccc2c1O (configuration not stated)	-7	103	104	13
Cc1cc(C)n(CCCNC(=O)CSc2nnc(-c3c[nH]c4ccccc34)o2)n1	-3	102	107	8
CC(=O)N[C@@H](CC(C)C)C(=O)N[C@@H](CC(C)C)C(=O)N[C@H](C=O)CCCN=C(N)N	1	100&101	103&102	-13
Nc1oc(-c2ccccc2F)cc1C(=O)c1ccccc1	.	104	105	-3
COc1cc2c(cc1OC)C(C)N(C(=O)c1noc3c1COc1ccc(C)cc1-3)CC2 (configuration not stated)	-18	101	105	-9
CSc1nnc(-c2ccncc2)n1Cc1ccccc1	.	101	104	-1
O=C(NCc1nc(-c2ccccc2)no1)Nc1ccccc1	-26	103	103	-20
O=c1[nH]c2ccc(Cl)cc2c(-c2ccccc2)c1SC(=S)N1CCOCC1	-72	96	93	27
CCCc1nc2c(o1)CC(C)(C)CC2=O	.	102	103	-6
CC(C)N(C(=O)c1cc2sccc2n1Cc1ccc(F)cc1)C(C)C	-56	100	102	3
CC(=O)Nc1ccccc1OCc1cc(=O)n2nc(C)sc2n1	-19	99	102	8
CS(=O)(=O)N1CCN(C2CCCCC2)CC1	15	104	103	-4
CCc1nonc1NC(=O)COc1ccccc1OC	8	102	104	-7
CCOC(=O)C1CCN(CC(=O)N2C(C)CCCC2C)CC1 (configuration not stated)	-41	106	101	-6
O=C(NCC1CCCO1)C1CCN(C(=O)c2ccc(Br)cc2)CC1 (configuration not stated)	-9	100	102	-3
CCOC(=O)c1c(C)oc2c1c(C=Nc1cccnc1)c(O)c1ccccc12	-5	111	137	-10
O=C1c2ccccc2S(=O)(=O)N1C(=O)c1c(Cl)nc2sccn12	-12	104	103	12
Other results follow:
SMILES	Mtb MenB inh	PV pol inh	PV pol inh intensity	Mtb MbtI inh
COC(=O)c1ccc(NC(=O)N2CCC(N(C)Cc3cccc(Cl)c3)CC2)cc1	-3	101	103	6
CCn1c(O)c(N=Nc2ccc(S(=O)(=O)N3CCOCC3)cc2)c(=O)n(CC)c1=S	-44	100	104	1
Cc1ccc(NC(=O)c2ccc3c(=O)n(Cc4ccco4)c(=S)[nH]c3c2)cc1Cl	-30	103	107	-6
CC(C)=CCc1c2c(c3occ(-c4ccc(O)c(O)c4)c(=O)c3c1O)C=CC(C)(C)O2	-2	100	100	-6
O=C(c1cc2sccc2n1Cc1ccccc1)N(Cc1ccco1)Cc1cccs1	-95	100	101	11
Cc1nc2ccccc2c(=O)n1-c1ccc(Br)cc1	-2	105	101	-8
S=C1N(CN2CCCCC2)CCN1CN1CCCCC1	-7	104	106	.
O=C(COc1cc(Cl)c(Cl)cc1Cl)NCCN1C(=O)CSC1=O	-34	103	96	0
CN(C(=O)CSc1nc2c(c(=O)[nH]1)CCC2)C1CCCCC1	-13	102	104	29
CC(C)(CNC(=O)c1cccc(S(=O)(=O)N2CCOCC2)c1)N1CCOCC1	-29	107	125	-5
CC(=O)OCCCc1nc2ccccc2n1C(C)=O	.	101	103	-13
Cc1ccc(C)c(Cn2ncc3ccccc32)c1	-8	103	103	-11
O=C(NCCS(=O)(=O)N1CCCC1)c1ccc2c(c1)OCO2	-7	108	112	33
C#CCSc1n[nH]c(-c2ccccc2)n1	-14	102	99	83*
CCC(Sc1nnnn1-c1ccccc1)C(=O)N1c2ccccc2Sc2ccccc21 (configuration not stated)	-18	104	90	12
CC(C#N)Sc1nnc(-c2cccc(S(=O)(=O)Nc3ccccc3Cl)c2)n1-c1ccccc1 (configuration not stated)	-35	100	105	-4
CCCN1C2CCCC1CC(NC(=O)c1cc(OC)c(OC)c(OC)c1)C2 (configuration not stated)	12	101	102	-5
CSc1c(C#N)c(N)c(C#N)c2c1COC(C)(C)C2	-9	96	106	-73
CCN(CCO)C(=S)Nc1cc(C(=O)OC)ccc1C(=O)OC	-11	99	102	-4
CC(C)CNC(=O)CSc1ccc2c(c1)OCCO2	-27	99	83	15
O=C(O)c1cc(=O)c2ccccc2[nH]1	15&3	99&97	104&100	31&-40
CCOC(=O)C1=C(CNC(C)C)NC(=O)NC1c1ccccc1 (configuration not stated)	-10	101	108	-2
CCc1ccc2[nH]c(=O)c(CN(Cc3ccco3)C(=O)Nc3ccccc3)cc2c1	10	102	102	2
C/[N+]([O-])=C\c1ccc(-c2ccccc2)cc1	-18	104	106	27
COC(=O)c1ccc(Oc2nc(N)nc(N(C)C)n2)cc1	-77	102	99	2
Further entries follow.
SMILES	Mtb MenB inh	PV pol inh	PV pol inh intensity	Mtb MbtI inh
CC1CCC2(OC1)O[C@H]1C[C@H]3[C@@H]4CC[C@H]5C[C@@H](O)CC[C@]5(C)[C@H]4CC(=O)[C@]3(C)[C@H]1[C@@H]2C (some centres not stated)	1	100	98	4
CCOc1ccc(-n2nnc(C)c2C(=O)N2CCC(C(N)=O)CC2)cc1	14	99	102	-30
Cc1ccc(SCC(=O)N[C@@H]2C[C@H]3CC[C@@H]2C3)cc1	-8	99	107	.
CN(C(=O)CSc1nc(O)cc(=O)n1C1CCCC1)c1ccccc1	-114	106	110	-8
O=C1CCCCCC1CN1CCCCC1 (configuration not stated)	.	104	98	-14
C=CCNC(=S)Nc1nccs1	1	108	108	25
Cc1nc(-c2c(C)[nH]c3ccccc23)cs1	9	89*	84*	87*
CCCCN(C(=O)Cn1ncc2c1-c1cc(C)ccc1OC2)C1CCN(C(C)=O)CC1	13	100	103	2
CC(=O)Oc1cc(-c2nc3ccccc3o2)cc(-c2nc3ccccc3o2)c1	-110	106	101	-3
CCN(CC)C(=O)CCc1nc(-c2cccc(OC)c2)no1	-18	100	97	-13
Cc1cc(-c2ccc(S(=O)(=O)N(C)Cc3ccccc3)cc2)on1	-23	104	105	-11
CCSc1nnc(-c2ccccc2NC(=O)CC)c(=O)[nH]1	-28	99	110	-3
CCC(CO)NCc1sccc1C (configuration not stated)	0	99	100	-8
CCOC(=O)C1OC(c2ccccc2)OC1C(=O)OCC (configuration not stated)	8	97	95	12
Cn1cc(CCCC(=O)O)c2ccccc21	26	102	101	89
Cc1ccc(C(c2nnnn2C(C)(C)C)N2CCC(C)CC2)cc1 (configuration not stated)	-13	103	103	-7
CNC(=O)CCc1cn(Cc2ccc(C)cc2)c2ccccc12	-29	105	105	-7
COc1ccccc1OCCOc1ccc(F)cc1	-17	102	101	-12
COc1ccc(-c2nc3n(c2NC(C)(C)C)CCN(C(=O)Cc2ccccc2F)C3)cc1	-28	103	103	-5
CC(C)N1C(=S)SC(C)(C)C1n1oc(=O)n(-c2cccc(Cl)c2)c1=O (configuration not stated)	1	101	109	.
Cc1cc(C)c(C(=O)COC(=O)c2nccnc2N)cc1C	-16	106	109	106
CCOC(=O)CN1C(=O)S/C(=C\c2ccc(C(=O)O)cc2)C1=O	-9	103	105	-1
O=C1C=CC(=O)C(C2=C3C(=O)N(Cc4ccccc4)CC(=O)N3CCC2)=C1	14	102	102	100*
CCOC(=O)C1=C(C)N(C)C(C)=C(C(=O)OCC)C1c1ccc(C)s1	-31	103	105	-3
CC(Oc1ccccc1)C(=O)NC1CC(C)(C)NC(C)(C)C1 (configuration not stated)	4	102	103	-20

Ordered by length of the SMILES (smallest number first): three of the compounds above
SMILES	Mtb MenB inh	PV pol inh	PV pol inh intensity	Mtb MbtI inh
CCOC(=O)CN1C(=O)S/C(=C\c2ccc(C(=O)O)cc2)C1=O	-9	103	105	-1
CC(=O)Oc1cc(-c2nc3ccccc3o2)cc(-c2nc3ccccc3o2)c1	-110	106	101	-3
COc1ccc(-c2nc3n(c2NC(C)(C)C)CCN(C(=O)Cc2ccccc2F)C3)cc1	-28	103	103	-5

Next section
SMILES	Mtb MenB inh	PV pol inh	PV pol inh intensity	Mtb MbtI inh
CC[C@H]1OC(=O)[C@H](C)[C@@H](O[C@H]2C[C@@](C)(OC)[C@@H](O)[C@H](C)O2)[C@H](C)[C@@H](O[C@@H]2O[C@H](C)C[C@H](N(C)C)[C@H]2O)[C@](C)(OC)C[C@@H](C)C(=O)[C@H](C)[C@@H](O)[C@]1(C)O	0	101	103	-11
O=C(O)c1nn(CCN2C(=O)c3ccccc3C2=O)c(=O)c2ccccc12	7	106	107	-4
Cc1[nH]c(=O)c(C#N)c(C)c1CCC(=O)OCc1ccc(C#N)cc1	-8	99	108	14
CCn1c(C(C#N)/C(=N\S(=O)(=O)c2cccs2)c2ccccc2)nc2ccccc21 (configuration not stated)	-14	101	107	15
CC1CN(CC(O)COC(c2ccccc2)c2ccccc2)CC(C)O1 (configuration not stated)	13	99	104	2
CN1CC=C2C(C#N)=C(N)C(C#N)(C#N)C(CCc3ccccc3)C2C1 (configuration not stated)	-138	74	195	88
O=C1CC(=O)N(Cc2ccccc2)C(=O)N1	-48	98	100	-3
O=C(/C=C/c1ccccc1)Nc1nnc(/N=C/c2ccc(Br)s2)s1	-4	100	102	11
NNC(=O)COc1cccc(C(F)(F)F)c1	-13	104	103	-8
FC(F)(F)c1nc(=S)c2ccccc2[nH]1	-45	101	98	53
Brc1ccc(-c2csc(NN=C3CCCC3)n2)cc1	-36	101	101	80*
CC(C)C(=O)N1N=C(c2cccc(NS(C)(=O)=O)c2)CC1c1ccccc1 (configuration not stated)	-21	103	103	-11
Nc1cccc(C(=O)NC2CC2)c1	-1	98	99	61
O=C(COC(=O)Cc1ccccc1)Nc1ncc(Cl)cc1Cl	.	101	97	1
CCN(CC)S(=O)(=O)c1ccc(Cc2ccc(S(=O)(=O)N(CC)CC)cc2)cc1	-9	100	101	-3
CCOc1ccccc1C(=O)NCc1ccc2[nH]c(C)cc2c1	-30	102	100	-5
CCOC(=O)C1CCN(C(=O)CSc2ccc(Br)cc2)CC1	-9	100	94	2
CC(=O)Oc1ccc(Cl)cc1C1OC(c2nc3nc(C)cc(C)n3n2)=NN1C(C)=O (configuration not stated)	-54	103	105	117
COc1ccc(C(O)(CCc2ccccc2)C(CN2CCCCC2)c2ccccc2)cc1 (configuration not stated)	5	104	97	2
Brc1ccc2ncnc(-c3ccccc3)c2c1	-12	98	101	13
CCc1ccc(C2N=C3Oc4ccccc4C=C3C(=O)N2)cc1 (configuration not stated)	12	101	104	63
Nc1ccc(CN2CCCCCC2)cc1	-14	101	94	.

Sorted by count of non-hydrogen atoms (lowest first): part of the list above
SMILES	Mtb MenB inh	PV pol inh	PV pol inh intensity	Mtb MbtI inh
C=CCNC(=S)Nc1nccs1	1	108	108	25
CCC(CO)NCc1sccc1C (configuration not stated)	0	99	100	-8
O=C(O)c1cc(=O)c2ccccc2[nH]1	15&3	99&97	104&100	31&-40
C#CCSc1n[nH]c(-c2ccccc2)n1	-14	102	99	83*
C/[N+]([O-])=C\c1ccc(-c2ccccc2)cc1	-18	104	106	27
COC(=O)c1cc(N)ccc1N1CCOCC1	-72	106	102	-3
CC(=O)OCCCc1nc2ccccc2n1C(C)=O	.	101	103	-13
CC[n+]1c(/C=C/Nc2ccccc2)sc2ccccc21	i	94	90	.
C#CCn1c(=NC(=O)C2=COCCO2)sc2ccccc21	1	97	100	23
CN(C(=O)CSc1nc2c(c(=O)[nH]1)CCC2)C1CCCCC1	-13	102	104	29
O=C(COc1cc(Cl)c(Cl)cc1Cl)NCCN1C(=O)CSC1=O	-34	103	96	0
Cc1ccc(C(c2nnnn2C(C)(C)C)N2CCC(C)CC2)cc1 (configuration not stated)	-13	103	103	-7
Cc1[nH]c(=O)c(C#N)c(C)c1CCC(=O)OCc1ccc(C#N)cc1	-8	99	108	14
CC1CN(CC(O)COC(c2ccccc2)c2ccccc2)CC(C)O1 (configuration not stated)	13	99	104	2
O=C1C=CC(=O)C(C2=C3C(=O)N(Cc4ccccc4)CC(=O)N3CCC2)=C1	14	102	102	100*
CC(C)(CNC(=O)c1cccc(S(=O)(=O)N2CCOCC2)c1)N1CCOCC1	-29	107	125	-5
COC(=O)c1ccc(NC(=O)N2CCC(N(C)Cc3cccc(Cl)c3)CC2)cc1	-3	101	103	6
CCn1c(C(C#N)/C(=N\S(=O)(=O)c2cccs2)c2ccccc2)nc2ccccc21 (configuration not stated)	-14	101	107	15
CC(C)=CCc1c2c(c3occ(-c4ccc(O)c(O)c4)c(=O)c3c1O)C=CC(C)(C)O2	-2	100	100	-6
COc1ccc(C(O)(CCc2ccccc2)C(CN2CCCCC2)c2ccccc2)cc1 (configuration not stated)	5	104	97	2
CC(C#N)Sc1nnc(-c2cccc(S(=O)(=O)Nc3ccccc3Cl)c2)n1-c1ccccc1 (configuration not stated)	-35	100	105	-4
CC[C@H]1OC(=O)[C@H](C)[C@@H](O[C@H]2C[C@@](C)(OC)[C@@H](O)[C@H](C)O2)[C@H](C)[C@@H](O[C@@H]2O[C@H](C)C[C@H](N(C)C)[C@H]2O)[C@](C)(OC)C[C@@H](C)C(=O)[C@H](C)[C@@H](O)[C@]1(C)O	0	101	103	-11
